gsp agonist – qHTS for Agonist of gsp, the Etiologic Mutation Responsible for Fibrous Dysplasia/McCune-Albright Syndrome: qHTS. actives 0.13% (n = 340,000). gsp mutant cells, cAMP HTRF, 30 min; control for the full effect not named in the record. Potency, µM (highest dose often 76.9 µM), for the others: at the top dose activation (cAMP increase), actives largely listed as activators; active = well fitted activation curve with a large enough effect; inconclusive = small, poorly fitted or top-dose-only effect, or another doubt; inactive = no such curve, though single readings can be large or run the other way; cell line not stated here;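 further: phosphodiesterase inhibitor Ro 20-1724 added with compounds to block cAMP breakdown; potency means the concentration at half of the fitted maximal effect; nearly all actives have a fitted effect of over 60% in size; about a fifth of the inactives were tested at one dose only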
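Cells stably selected in G418 were plated at 2000/well, grown 16-24 hr, then given compounds in DMSO with the PDE inhibitor […] (300 uM solution added) for 30 min at 37C; cAMP was read by HTRF.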
Menin-MLL FL inh – qHTS Assay for Inhibitors Targeting the Menin-MLL Interaction in MLL Related Leukemias: Competition With Fluorescein Labeled MLL-derived Peptide; Fluorescence polarization, fluorescein-MLL peptide displacement from menin; 290,000 tested, under 10 active; FP activity change, % at 61.4 µM; inconclusive = falling polarisation curve, or a change in total fluorescence; inactive = total fluorescence flat and polarisation flat or rising; no compound was filed as active; the % refers to the polarisation; negative = inhibition;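 further: % of control where 0% means no effect; inhibitors lower the polarisation; unlabelled MLL peptide was the positive control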
Sfp PPTase inh – qHTS Assay for Inhibitors of Bacillus subtilis Sfp phosphopantetheinyl transferase (PPTase). 4'-phosphopantetheinyl transferase ffp (Bacillus subtilis), Q9F4F7. Biochemical Sfp PPTase activity, qHTS. Potency, µM, for the others: max response, negative = inhibition, most hits filed as inhibitors. actives 3.5% (n = 310,000); active means well fitted inhibition curve with a large enough effect; inconclusive means small, poorly fitted or top-dose-only effect, or another doubt; inactive means no such curve, though single readings can be large or run the other way;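 further: the enzyme is Sfp with the accession as filed and its product quenches rhodamine fluorescence; potency means the concentration at half of the fitted maximal effect; 0% = enzyme reaction without inhibitor and -100% = no enzyme wells; top concentration of the series not given in the record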
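Fluorescence-quenching assay with 15 nM Sfp, 5 uM rhodamine-CoA and 12.5 uM BHQ-2-labelled ybbR peptide in pH 7.6 Hepes/MgCl2 buffer. Enzyme was pre-incubated with compound for 15 min at room temperature. Rate was taken from the 30-min fluorescence change (525/598 nm).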
gsp antagonist – qHTS for Antagonists of gsp, the Etiologic Mutation Responsible for Fibrous Dysplasia/McCune-Albright Syndrome: qHTS | gsp-mutant cells, cAMP HTRF, 30 min; control for the full effect not named in the record | Potency, µM (series often up to 76.9 µM), inactives show at the highest dose activity change, negative = inhibition, most hits filed as inhibitors | actives 0.4% (n = 340,000) | AID 624288, 2012; active = falling curve of any shape with a large fitted effect; inconclusive = falling curve, mostly with a smaller effect; inactive = flat or rising curve; cell line not stated here;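 further: intracellular cAMP measured with PDE inhibitor Ro 20-1724 present during compound exposure; potency means the concentration at half of the fitted maximal effect; on the % scale 0 is the no-effect control and ±100 the full control effect; nearly all actives have a fitted effect of over 65% in size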
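Cells in G418 medium, seeded 16-24 h, 37C; buffer exchange to DPBS + 1 mM CaCl2, 0.5 mM MgCl2, 0.05% BSA; cpds in DMSO + […] (300 uM stock), 30 min 37C; HTRF cAMP detection.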
CtBP-E1A blk – qHTS Assay for Inhibitors of the CtBP/E1A Interaction; AID 651724, 2012; CtBP / adenovirus E1A interaction (AlphaScreen); activity change, % (concentration not given with the values); actives 0.49% (n = 340,000); AlphaScreen GST-E1A/His-CtBP binding, 1536-well; hits give low values; control for the full effect not named in the record; in the data active means activity change below about -65%; inconclusive means about -30% to -65%; inactive means above about -30%; further: on the % scale 0 is the no-effect control and ±100 the full control effect
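Homogeneous bead-based format: GST-tagged E1A captured on glutathione donor beads, His-tagged CtBP on nickel acceptor beads; compounds precede bead addition by 2 h at 37 °C.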
TRPV1 PAM – HTS Assay for Compounds that Act as Potentiators of the Vanilloid Receptor 1; Transient receptor potential cation channel subfamily V member 1 (Homo sapiens), Q8NER1; TRPV1-expressing cells, Fluo-8 calcium influx, capsaicin EC20 potentiation; host cell line not named in the record; control for the full effect not named in the record; potentiation, % at 8.33 µM; actives 0.02% (n = 320,000); AID 540277, 2011; active means potentiation above 80%; inconclusive means 30% to 80%; inactive means below 30%; further: 0% is about no effect
Target sequence (Q8NER1 whole entry, looked up): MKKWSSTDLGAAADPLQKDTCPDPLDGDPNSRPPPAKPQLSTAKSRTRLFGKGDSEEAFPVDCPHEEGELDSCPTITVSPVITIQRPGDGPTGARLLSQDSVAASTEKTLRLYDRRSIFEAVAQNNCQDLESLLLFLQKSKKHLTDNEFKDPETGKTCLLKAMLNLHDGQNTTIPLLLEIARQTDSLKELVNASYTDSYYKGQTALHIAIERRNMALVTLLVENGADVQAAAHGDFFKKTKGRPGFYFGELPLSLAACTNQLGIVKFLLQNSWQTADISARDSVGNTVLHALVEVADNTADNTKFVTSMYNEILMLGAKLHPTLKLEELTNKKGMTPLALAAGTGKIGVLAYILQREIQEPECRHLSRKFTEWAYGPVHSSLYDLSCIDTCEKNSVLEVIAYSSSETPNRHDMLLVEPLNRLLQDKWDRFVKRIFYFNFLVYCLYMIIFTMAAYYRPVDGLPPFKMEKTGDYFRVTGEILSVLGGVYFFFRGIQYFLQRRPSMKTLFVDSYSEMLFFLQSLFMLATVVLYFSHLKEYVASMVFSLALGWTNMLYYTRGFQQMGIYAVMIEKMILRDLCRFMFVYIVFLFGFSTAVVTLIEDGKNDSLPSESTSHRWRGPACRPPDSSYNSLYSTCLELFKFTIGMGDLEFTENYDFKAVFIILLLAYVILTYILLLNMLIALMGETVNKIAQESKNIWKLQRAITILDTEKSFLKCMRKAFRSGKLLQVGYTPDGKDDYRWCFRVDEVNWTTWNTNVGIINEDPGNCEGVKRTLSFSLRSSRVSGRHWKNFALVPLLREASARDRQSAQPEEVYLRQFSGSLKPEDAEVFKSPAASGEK
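Fluo-8 calcium influx in TRPV1-expressing cells, kinetic read (ex 480/em 520 nm). Compound added and read 3 min for agonist activity, followed by capsaicin at EC20 final and 2 min further read for enhancement.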
ClpP mod – qHTS Assay for Activators of ClpP; actives 1.9% (n = 340,000); purified B. subtilis ClpP, FRET peptide cleavage, 20 min; Potency, µM (series often up to 57.5 µM), inactives show at the top dose activity change, negative = active; active = well fitted falling curve with a large enough effect; inconclusive = small, poorly fitted or top-dose-only effect; inactive = no such curve, though single readings can be large or run the other way; further: potency means the concentration at half of the fitted maximal effect; the source files actives as falling curves though it sought activators and does not explain the sign; nearly all actives have a fitted effect of over 65% in size; many hits overshoot -100%
Target sequence (P80244 whole entry, looked up): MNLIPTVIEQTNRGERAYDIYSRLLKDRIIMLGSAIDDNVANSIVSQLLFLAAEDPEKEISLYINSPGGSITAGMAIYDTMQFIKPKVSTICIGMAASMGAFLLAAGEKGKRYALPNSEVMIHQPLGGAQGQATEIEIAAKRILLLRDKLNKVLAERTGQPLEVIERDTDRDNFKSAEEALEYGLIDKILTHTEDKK
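ClpP 10 microg/mL final, pH 8 Tris/KCl buffer with BSA, glycerol, Tween-20; compound pinned in; FRET-FV substrate; RT 20 min; Ex320/Em430; ΔFRET vs ADEP 5.8 microM, DMSO, no enzyme.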
An asterisk follows results filed as active; u = inconclusive; x = not tested or not shown; & = joins results of further samples; [ ] = remark or other dose. This is a subset; the hit share may differ from the screen's.

SMILES	gsp agonist	Menin-MLL FL inh	Sfp PPTase inh	gsp antagonist	CtBP-E1A blk	TRPV1 PAM	ClpP mod
NC(Cc1nc2ccccc2[nH]1)c1ccc(Cl)cc1 (stereo unspecified)	8%[15.4 µM]	2.9	19%	-2%	-7	-4	x
Cc1ccc(Cn2nc(C)c(C=O)c2Cl)cc1	-10%[15.4 µM]	5.7	0%	-28%	4	5	x
COc1ccccc1CNCCc1ccc(F)cc1	-29%	-6.3	-7%	8%	-22	-8	-3.8%
CC(=O)O[C@@H]1/C=C/[C@](C)(O)C[C@@H](C)C/C=C/[C@H]2[C@@H]3O[C@]3(C)[C@@H](C)[C@H]3[C@H](Cc4ccccc4)NC(=O)[C@@]312	x	x	x	6%	-7	x	-4.1%
CC(C)(C)c1ccc(C(=O)C2CCCN(C3CCC3)C2)cc1 (stereo unspecified)	0%	9.0	10%	2%	0	-12	x
CCN1CCN(Cc2nnnn2C(C)(C)C)CC1	u	0.1	9%	6%	5	8	1.0%
COc1ccc(OC)c(N2C(=O)CC(=O)NC2=O)c1	-2%	-0.9	3%	-4%	x	u	-2.5%
O=C(Nc1ccc(Br)cc1)N1C[C@H]2C[C@@H](C1)c1cccc(=O)n1C2	x	-1.4	18%	8%	4	3	-2.4%
CN(Cc1ccccc1)C(=O)CN1CCCC1=O	23%	-0.7	14%	-3%	x	-4	-2.3%
C/C(CC(c1ccccc1)c1c(O)c2ccccc2oc1=O)=N\NC(N)=S (stereo unspecified)	5%	6.4	u	1%	5	7	u
Cc1nc2cc(C(F)(F)F)ccc2n1C1CCN(Cc2nnnn2CCc2ccccc2)CC1	0%	3.8	2%	-10%	7	0	u
O=C(COC(=O)Cc1ccccc1)Nc1cc(S(=O)(=O)N2CCCCC2)ccc1Cl	-30%	x	x	3%	-15	2	-3.3%
CCCCC(=O)N/N=C/c1c(O)n(-c2cccc3ccccc23)c(=O)[nH]c1=O	16%	1.5	13%	-4%	x	-12	-3.2%
CN1C(=O)C(=Cc2ccc(N3CCOCC3)o2)C(=O)N(C)C1=O	12%	x	u	2%	4	30	1.7%
CC(=O)c1cn(CC(=O)NCCc2c[nH]c3ccccc23)c2ccccc12	6%	-2.1	11%	-28%	x	-2	-0.7%
COC(=O)C1=C(c2ccccc2)C[C@@H]2CC[C@H]1N2C(=O)NC1CC1	-33%[inhibitor]	x	x	4%	-1	x	-0.4%
COc1cc2ccc(=O)oc2c2ccoc12	x	-2.6&0.2	24%&-3%	8%	-5	1	4.0%
Cc1cc(C=C2C(=O)NC(=S)NC2=O)c(C)n1-c1ccc2c(c1)OCO2	-18%	u	45µM*	-8%	-18	3	-2.1%
CC(Cc1ccccc1)NC(=O)c1ccc(N)cc1 (stereo unspecified)	-4%[15.4 µM]	2.9	11%	13%	-3	-6	0.5%
N#CC(C#N)=NNc1ccc([N+](=O)[O-])cc1	-19%	u	9%	50µM*	-12	11	x
C[C@]12CCC3C(CC[C@H]4C[C@@H](O)CC[C@]34C)C1C/C(=N/O)[C@@H]2O (stereo partly specified)	-44%[inhibitor]	x	x	6%	-5	x	x
COc1cc(/C=C/[N+](=O)[O-])ccc1O	-75%	3.8	u	-8%	1	11	-3.1%
CN1CC2=CC(O)CC3Oc4c(O)ccc(c4[C@]23C)C1 (stereo partly specified)	x	x	x	12%	17	x	-2.6%
Cc1c(Cl)cccc1NC(=S)N1CC2CC(C1)c1cccc(=O)n1C2 (stereo unspecified)	-32%[inhibitor]	-2.1	-9%	8%	0	-2	0.2%
O=C(C1CC(=O)N(C2CCCC2)C1)N1CCC2(CC1)OCCO2 (stereo unspecified)	11%	1.1	4%	-7%	6	5	0.9%
(more compounds)
SMILES	gsp agonist	Menin-MLL FL inh	Sfp PPTase inh	gsp antagonist	CtBP-E1A blk	TRPV1 PAM	ClpP mod
CN(C)C(=O)Oc1cccc2c(OC(=O)N(C)C)cccc12	0%	1.0	16%	0%	1	6	-1.3%
CC/C(=C\C=C\[C@@H]1C=C[C@@H]2CCC[C@H]2[C@@H]1C(=O)c1ccc[nH]1)[C@@H]1O[C@@H]([C@@H](C)C(=O)O)CC[C@@H]1C	-17%	-0.3	10%	u	-6	-11	1.0%
C=CCN1C(=O)NC(=O)/C(=C/c2cnc(SC)nc2)C1=O	2%	0.5	32µM*	-1%	6	15	-1.0%
O=C(NCc1ccccn1)c1ccccc1Cl	-5%	-3.9	17%	14%	-4	10	1.9%
O=C(/C=C/c1ccc(Cl)cc1)NC(=S)N1C[C@H]2C[C@H](C1)c1cccc(=O)n1C2	-2%	3.1	-14%	4%	1	-1	1.2%
CC/C=C/CC(=O)N[C@@H](c1ccccc1)[C@@H](O)C(=O)O[C@H]1C[C@@]2(O)[C@@H](OC(=O)c3ccccc3)C3[C@](C)(C(=O)[C@H](OC(C)=O)C(=C1C)C2(C)C)[C@@H](O)C[C@H]1OC[C@@]31OC(C)=O (stereo partly specified)	-101%[inhibitor]	0.3	18%	0%	7	-7	0.9%
CCCCCCn1c(=O)c(C(=O)Nc2ncccc2C)c(O)c2ccccc21	u	-3.8	19%	9%	x	-4	-28%
Nc1ccc2c3c(cccc13)CC2	-1%	u	-5%	13%	1	4	14µM*
CCN1C(=O)/C(=C\c2ccc([N+](=O)[O-])s2)C(=O)NC1=S	x	u	10µM*	x	x	-3	x
COc1ccc(CC[n+]2cc(/N=C(\C)[O-])on2)cc1OC	-24%	-2.2	17%	7%	15	0	-0.4%
CC[C@@]1(C(=O)OC)N[C@H](CN(C)C(=O)c2ccc(C(C)(C)C)cc2)[C@@H]2C(=O)N(Cc3ccccc3)C(=O)[C@@H]21	x	x	x	u	2	x	0.5%
O=C(CNS(=O)(=O)c1cccs1)N1CCC2(CC1)OCCO2	20%	5.6	26%	7%	5	-1	-0.5%
CC1CCC(N(C)C2CCN(C)CC2)CC1 (stereo unspecified)	-29%	-1.2	3%	6%	10	7	0.9%
Cc1cc(C)cc(N2C(=O)NC(=O)/C(=C\c3cc(C)n(C)c3C)C2=O)c1	8%[15.4 µM]	6.1	-8%	-17%	-4	14	x
COCCNC(=O)N1[C@H]2CC[C@@H]1C(C(=O)OC)=C(c1cccc(C#N)c1)C2	x	x	x	11%	8	21	1.8%
C[N+](C)(C)CCCCCCCCCC[N+](C)(C)C	x	-1.0	-4%&-11%&1%	-2%	-1	13	-18%
Cc1ccc(-n2c(-c3cccs3)nc3ccccc3c2=O)cc1	-31%[inhibitor]	4.3	-2%	-13%	0	23	-5.1%
CC1=C2[C@@H]3OC(=O)[C@H](C)C3CC[C@@]2(C)C=CC1=O (stereo partly specified)	-93%[inhibitor]	-3.9	10%	4%	x	16	-1.1%
COc1ccc([C@@H](O)[C@@H](N)c2ccccc2)cc1	12%[15.4 µM]	x	x	-2%	6	x	x
Cc1ccccc1OCCCn1cc(C(=O)C(=O)N2CCOCC2)c2ccccc21	2%[15.4 µM]	2.9	-10%	-7%	-3	-16	-3.0%
COc1cc2c(cc1OC)CC[N+](C)=C2	x	2.3	-7%	0%	14	6	5.5%
CCS(=O)(=O)N1CCC(C(=O)N2CCC3(CC2)OCCO3)CC1	-35%[inhibitor]	5.5	18%	3%	7	-11	0.9%
CNC(=O)Oc1ccccc1OC(C)C	x	-1.0	12%	-2%	-1	x	-0.9%
CCCCCc1nc2c(c(=O)c3ccccc3n2C)c(=O)n1C1CCCCCC1	16%	-1.0	40µM*	-30%	3	-20	-2.0%
COC(=O)C1=CO[C@@H](C)[C@@H]2CN3CC[C@@]4(C(=O)Nc5ccccc54)[C@@H]3C[C@H]12	-38%[inhibitor]	1.4	-4%	12%	x	-10	1.5%
O=C(c1cc2c(s1)-c1ccccc1OC2)N1CCC2(CC1)OCCO2	4%	1.3	0%	2%	-2	-25	28µM*
Cc1cc(OCC(=O)N2CCC(C(N)=O)CC2)c2c3c(c(=O)oc2c1)CCCC3	x	-0.1	8%	10%	4	-1	4.1%
O=C1NC(=O)N(c2cccc(F)c2)C(=O)/C1=C/c1ccc(N2CCOCC2)cc1	25%	u	32µM*	1%	x	x	-3.4%
O=C1/C(=C/c2ccc3c(c2)OCO3)SC(=S)N1CCC(=O)N(CCO)c1ccccc1	u	x	x	x	-5	x	3.9%

An excerpt of these results, as labelled records:
> CCCCCc1nc2c(c(=O)c3ccccc3n2C)c(=O)n1C1CCCCCC1
  gsp agonist: 16%
  Menin-MLL FL inh: -1.0
  Sfp PPTase inh: 40µM*
  gsp antagonist: -30%
  CtBP-E1A blk: 3
  TRPV1 PAM: -20
  ClpP mod: -2.0%

> COC(=O)C1=CO[C@@H](C)[C@@H]2CN3CC[C@@]4(C(=O)Nc5ccccc54)[C@@H]3C[C@H]12
  gsp agonist: -38%[inhibitor]
  Menin-MLL FL inh: 1.4
  Sfp PPTase inh: -4%
  gsp antagonist: 12%
  CtBP-E1A blk: x
  TRPV1 PAM: -10
  ClpP mod: 1.5%

> O=C(c1cc2c(s1)-c1ccccc1OC2)N1CCC2(CC1)OCCO2
  gsp agonist: 4%
  Menin-MLL FL inh: 1.3
  Sfp PPTase inh: 0%
  gsp antagonist: 2%
  CtBP-E1A blk: -2
  TRPV1 PAM: -25
  ClpP mod: 28µM*

> Cc1cc(OCC(=O)N2CCC(C(N)=O)CC2)c2c3c(c(=O)oc2c1)CCCC3
  gsp agonist: x
  Menin-MLL FL inh: -0.1
  Sfp PPTase inh: 8%
  gsp antagonist: 10%
  CtBP-E1A blk: 4
  TRPV1 PAM: -1
  ClpP mod: 4.1%

Assay outcomes: PubChem BioAssay, National Center for Advancing Translational Sciences (NCATS)
